High-throughput results deposited in PubChem by National Center for Advancing Translational Sciences (NCATS).
Sfp inh: inhibitors of Bacillus subtilis Sfp phosphopantetheinyl transferase. Q9F4F7. Biochemical Sfp PPTase activity, qHTS. Potency, µM, inactives show max response, negative = inhibition, most hits filed as inhibitors. actives 3.5% (n = 310,000); active means well fitted inhibition curve with a large enough effect; inconclusive means small, poorly fitted or top-dose-only effect, or another doubt; inactive means no such curve, though single readings can be large or run the other way;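 further: the enzyme is Sfp with the accession as filed and its product quenches rhodamine fluorescence; potency means the concentration at half of the fitted maximal effect; 0% = enzyme reaction without inhibitor and -100% = no enzyme wells; top concentration of the series not given in the record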
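After 15 min at room temperature with compound, 15 nM Sfp received 5 uM rhodamine-CoA plus 12.5 uM BHQ-2-ybbR (50 mM Hepes pH 7.6, 10 mM MgCl2). Rate came from the fluorescence difference over 30 min, ex 525/em 598 nm.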
gsp antagonist: antagonizes gsp, the McCune-Albright syndrome mutation. gsp-mutant cells, cAMP HTRF, 30 min; control for the full effect not named in the record. AID 624288. Potency, µM (highest dose often 76.9 µM), without a hit: top-dose activity change, negative = inhibition, usual class: inhibitors. actives 0.4% (n = 340,000); active = falling curve of any shape with a large fitted effect; inconclusive = falling curve, mostly with a smaller effect; inactive = flat or rising curve; cell line not stated here;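 further: intracellular cAMP measured with PDE inhibitor Ro 20-1724 present during compound exposure; potency means the concentration at half of the fitted maximal effect; on the % scale 0 is the no-effect control and ±100 the full control effect; nearly all actives have a fitted effect of over 65% in size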
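HTRF cAMP measurement after 30 min RT detection following 30 min, 37C compound treatment alongside […] (added as 300 uM solution) in G418-selected cells seeded at 2000/well and grown 16–24 h.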
Menin MLL FP FL: menin-MLL binding inhibition, fluorescein peptide; Fluorescence polarization, fluorescein-MLL peptide displacement from menin; FP activity change, % at 61.4 µM; 290,000 tested, under 10 active; AID 1766; inconclusive = falling polarisation curve, or a change in total fluorescence; inactive = total fluorescence flat and polarisation flat or rising; no compound was filed as active; the % refers to the polarisation; negative = inhibition;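 further: % of control where 0% means no effect; inhibitors lower the polarisation; unlabelled MLL peptide was the positive control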
PINK1 expr mod: changes PINK1 expression | PINK1 immunofluorescence, high-content cytometry, 24 h | AID 624263 | actives 0.2% (n = 410,000) | Potency, µM (top dose mostly 76.6 µM), for inactives: top-dose activation (PINK1 increase), actives largely listed as activators; active = well fitted activation curve with a large enough effect; inconclusive = small, poorly fitted or top-dose-only effect; inactive = flat fitted curve, though single readings scatter; cell line not stated here;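 further: potency means the concentration at half of the fitted maximal effect; % of control where 0% means no effect; nearly all actives have a fitted effect of over 65% in size; a mitochondrial uncoupler was the plate control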
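Measures PINK1 amount and localization on or inside mitochondria by immunofluorescence. Stable cells get compounds at 5 concentrations for 24 hours before fixation and staining; CCCP controls included.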
ClpP mod: qHTS Assay for Activators of ClpP. ATP-dependent Clp protease proteolytic subunit (Bacillus subtilis (strain 168)), P80244. purified B. subtilis ClpP, FRET peptide cleavage, 20 min. Potency, µM (doses to about 57.5 µM), without a hit: at the top dose activity change, negative = active. actives 1.9% (n = 340,000); active = well fitted falling curve with a large enough effect; inconclusive = small, poorly fitted or top-dose-only effect; inactive = no such curve, though single readings can be large or run the other way; further: potency means the concentration at half of the fitted maximal effect; the source files actives as falling curves though it sought activators and does not explain the sign; nearly all actives have a fitted effect of over 65% in size; many hits overshoot -100%
Target sequence (P80244 whole entry, looked up): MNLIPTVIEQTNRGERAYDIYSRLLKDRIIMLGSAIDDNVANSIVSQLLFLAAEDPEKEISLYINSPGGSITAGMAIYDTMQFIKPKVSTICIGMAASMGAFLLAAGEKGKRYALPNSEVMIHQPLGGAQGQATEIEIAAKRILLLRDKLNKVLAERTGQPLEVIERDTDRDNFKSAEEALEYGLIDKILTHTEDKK
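Buffer: 100 mM Tris/HCl pH8, 100 mM KCl, 0.05% low protease BSA, 2.5% glycerol, 0.01% Tween-20. ClpP 10 microg/mL final; 20 min RT; delta FRET normalized to ADEP and DMSO controls.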
D2 agonist: activates the human D2 dopamine receptor. P14416. DiscoveRx PathHunter D2 beta-arrestin, luminescence, 90 min; 100% = 57 uM dopamine signal. activation, % (no concentration beside the values). actives 0.084% (n = 360,000); in the data active = activation above about 40%; inconclusive = about 15% to 40%; inactive = below about 15%; further: compound concentration not given in the record; the text of the record calls up to 30% inactive
Target sequence (P14416 whole entry, looked up): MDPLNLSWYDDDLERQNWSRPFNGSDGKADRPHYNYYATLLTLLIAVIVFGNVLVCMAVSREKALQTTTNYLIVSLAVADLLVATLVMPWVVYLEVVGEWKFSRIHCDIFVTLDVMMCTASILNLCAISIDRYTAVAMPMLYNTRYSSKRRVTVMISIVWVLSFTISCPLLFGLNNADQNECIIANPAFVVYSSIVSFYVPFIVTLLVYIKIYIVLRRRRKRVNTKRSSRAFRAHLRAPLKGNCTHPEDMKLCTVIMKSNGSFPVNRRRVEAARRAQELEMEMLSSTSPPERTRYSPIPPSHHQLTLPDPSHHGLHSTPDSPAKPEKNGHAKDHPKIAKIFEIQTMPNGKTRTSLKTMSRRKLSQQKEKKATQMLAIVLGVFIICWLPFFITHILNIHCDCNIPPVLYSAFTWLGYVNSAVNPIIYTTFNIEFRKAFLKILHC
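Agonist mode: compounds alone added to overnight-plated D2 PathHunter cells for 90 min at 37 C, with 57 uM final dopamine (EC100) defining full response. Beta-arrestin recruitment detected by chemiluminescent reagent, read after 1 h at ambient temperature.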
gsp agonist: activates gsp, the McCune-Albright syndrome mutation; gsp mutant cells, cAMP HTRF, 30 min; control for the full effect not named in the record; Potency, µM (top dose mostly 76.9 µM), for the others: top-dose activation (cAMP increase), actives largely listed as activators; actives 0.13% (n = 340,000); AID 624287; active = well fitted activation curve with a large enough effect; inconclusive = small, poorly fitted or top-dose-only effect, or another doubt; inactive = no such curve, though single readings can be large or run the other way; cell line not stated here;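 further: phosphodiesterase inhibitor Ro 20-1724 added with compounds to block cAMP breakdown; potency means the concentration at half of the fitted maximal effect; nearly all actives have a fitted effect of over 60% in size; about a fifth of the inactives were tested at one dose only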
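Cells stably selected in G418 were plated at 2000/well, grown 16-24 hr, then given compounds in DMSO with the PDE inhibitor […] (300 uM solution added) for 30 min at 37C; cAMP was read by HTRF.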
Active calls of the source: *; ? = inconclusive; nt = not tested or not shown; & = joins results of further samples; [ ] = another dose, or the depositor's remark. An unsorted share of the library; overall some 5.1% were active at least once.

SMILES | Sfp inh | gsp antagonist | Menin MLL FP FL | PINK1 expr mod | ClpP mod | D2 agonist | gsp agonist
Cc1ccccc1-n1c(-c2csc(C)c2C)n[nH]c1=S | -10.5% | -4.2% | -1.0 | 0.0% | -5.2% | -4.8 | -30.1%[inhibitor]
C#CCN1C=CC(=O)[C@@H](O)[C@H]1c1ccccc1Br | nt | 7.7% | nt | -0.1% | 0.4% | -1.7 | nt
COc1cc(C)nc(Oc2ccc(OCCOc3ccccc3)nn2)n1 | 12.0% | 4.8% | -2.1 | 1.9% | -2.1% | -1.8 | 11.1%
CCCOC(=O)c1ccc(O)c(OC)c1 | -6.7% | nt | 1.1 | -0.7% | nt | -3.9 | -2.3%[15.4 µM]
O=C1[C@H]2[C@@H](c3ccc(C(F)(F)F)cc3)N[C@]3(CCCN(Cc4ccc(Cl)cc4)C3=O)[C@H]2C(=O)N1Cc1ccccc1 | nt | nt | nt | 2.2% | 1.9% | -6.4 | 1.2%
COc1cc(/C=C/c2nc3ccccc3c(=O)[nH]2)cc(Cl)c1O | -8.9% | -30.1% | ? | 1.2% | nt | 1.6 | 9.2%[15.4 µM]
COC(=O)c1ccc(/C=N\NC(=O)CC(=O)NCCc2ccccc2)cc1 | 13.3% | 1.0% | 2.2 | 0.7% | -1.2% | -3.0 | 4.1%
CC(=O)Oc1ccc(/C=C2/C(=O)N(c3ccccc3)N=C2C)cc1 | -10.2% | -19.4% | -29.0 | 0.5% | nt | -4.3 | 6.8%[15.4 µM]
Cc1nn(CC(=O)NC(C)C(C)C)c(C)c1S(=O)(=O)N1CCCCC1 (stereo unspecified) | nt | 7.2% | nt | 2.6% | -18.6% | 1.8 | -16.2%
Cc1cccc(N2CCN(C(=O)c3ccccc3NC(=O)C3=CSCCO3)CC2C)c1 (stereo unspecified) | 9.6% | -5.3% | -1.1 | -0.6% | -1.5% | 2.0 | 15.2%
CC(C)c1ccc(NC2CCCN(C(=O)c3cnn(C(C)C)c3)C2)cc1 (stereo unspecified) | 10.3% | ? | nt | -0.1% | -1.3% | 2.7 | -0.8%
COCCN(CC(=O)Nc1cccc(C)c1C)C(=O)c1cc(-c2cccs2)nn1-c1ccccc1 | nt | -19.5% | nt | -0.3% | -2.5% | 5.2 | 7.3%
Cc1ccccc1OCC(=O)NN1CCN(C)CC1 | 2.3% | 12.0% | 4.7 | -0.5% | -0.3% | 0.6 | ?
COc1ccc(Cn2c(C)c(C)c(C#N)c2NC(=O)Nc2cccc(C)c2)cc1 | 15.9% | 8.5% | 9.0 | 11.0% | -0.3% | 0.1 | -2.5%
O=C1C=C(c2cccc(OCc3ccccc3)c2)C[C@@H](c2ccc3c(c2)OCO3)C1 | nt | -2.8% | nt | 2.8% | -1.0% | -5.4 | 0.8%
COc1cnc(SCCC(F)=C(F)F)[nH]c1=O | 6.1% | 1.8% | 2.2 | -2.2% | nt | 2.7 | 17.5%
Cc1cccc2c(N=O)c(O)n(CCc3ccccc3)c12 | -3.4% | -18.1% | nt | 2.7% | 1.6% | 5.7 | -24.4%
COc1cc(OC)c(N(C)S(=O)(=O)c2cccc(C(=O)NC3=NCCS3)c2)cc1Cl | 9.5% | -7.3% | 3.9 | 6.8% | nt | -6.7 | -5.2%[15.4 µM]
CCc1cccc(OCC(=O)Nc2ccc(C)c(S(=O)(=O)N3CCCCCC3)c2)c1 | nt | -18.9% | nt | 1.4% | nt | -1.3 | 6.6%[15.4 µM]
O=C1Nc2cc(C(=O)N3CCOCC3)ccc2S/C1=C\c1ccccc1 | -12.6% | 1.8% | nt | -1.6% | -0.6% | -4.2 | -3.0%
Cc1cc(Cl)ccc1OCCCC(=O)N/N=C/c1cccc([N+](=O)[O-])c1 | -5.6% | -14.7% | 8.6 | 7.2% | 1.4% | -3.9 | -24.0%
C=CC[C@@H](CC(=O)N[C@@H](CO)Cc1ccccc1)C(=O)NCCOC(=O)[C@@H](CC=C)CC(=O)OC(C)(C)C | nt | 9.2% | nt | 2.0% | 3.8% | -1.0 | -54.1%
CC(=O)c1cccc(-n2c(CCC(=O)O)ccc2-c2ccccc2)c1 | 70.8µM* | ? | 5.8 | -0.9%&0.7% | -2.0%&-0.3% | 0.2 | -6.6%
C[C@@H]1CN([C@@H](C)CO)C(=O)c2cc(NC(=O)Nc3ccc4c(c3)OCO4)ccc2O[C@H]1CN(C)S(=O)(=O)c1ccc(F)cc1 | nt | -6.4% | nt | 0.6% | -5.8% | -2.2 | nt
O=C(NC(=S)Nc1ccccc1N1CCCCC1)c1ccc(F)cc1Cl | 10.2% | -1.2% | nt | ? | 0.7% | -9.1 | -2.7%
CSc1ccc(CN(C)CC(=O)Nc2ccc(C)cc2Br)cc1 | -25.4% | 4.9% | 3.8 | 14.8% | 1.4% | -4.7 | -8.9%[15.4 µM]
O=C(O)c1cccc(N2C(=O)c3cccc4cccc(c34)C2=O)c1 | 12.2% | -5.2% | -2.2 | 0.1% | ? | 6.9 | -12.1%[15.4 µM]
Cc1cccc(-c2noc(CN(C)C(=O)c3ccc4c(c3)OCO4)n2)c1 | -17.1% | 0.4% | -2.9 | 3.4% | -7.3% | 1.1 | -5.6%[15.4 µM]
CCOC(=O)N1CCC(NC(=O)c2ccc3snnc3c2)CC1 | 10.7% | 1.9% | 0.0 | 0.6% | 2.1% | -2.1 | -1.6%
COc1ccc(CNC(=O)CS(=O)CC(=O)O)cc1OC (stereo unspecified) | -20.8% | 14.4% | 2.1 | -1.1% | nt | -4.6 | -30.8%[inhibitor]
O=C(CN1C(=O)C(=O)N(C2CCCC2)C1=O)Nc1ccc(F)cc1F | nt | 0.6% | nt | 2.2% | nt | -4.6 | 45.2%[15.4 µM]
COc1ccc(C(=O)NC2CCC(O)CC2)cc1S(=O)(=O)NCc1ccc(Cl)cc1 (stereo unspecified) | nt | 3.7% | nt | 0.7% | -4.3% | -2.2 | 0.4%
O=[N+]([O-])c1ccccc1S(=O)(=O)Oc1ccccc1/C=N/n1cnnc1 | -0.3% | 7.8% | -0.2 | 1.9% | 1.0% | 0.2 | -1.0%[15.4 µM]
O=C(O)C1CC=CCC1C(=O)N1CCc2ccccc21 (stereo unspecified) | -0.5% | 13.5% | 2.8 | 0.6% | -0.3% | -1.3 | 19.4%
Cc1ccc(CN2CCN(Cc3cnc(N(C)C)s3)CC2CCO)o1 (stereo unspecified) | 22.7% | 5.3% | 0.9 | 0.8% | 1.3% | -2.0 | -1.2%
COC(=O)N[C@H](c1ccccc1)[C@@]1(C)C[C@@H]1[C@@H](C)C(=O)Nc1ccc2ccccc2c1 | 14.9% | -2.0% | 4.5 | 2.4% | -3.6% | -4.3 | -1.6%
CCCOc1ccccc1C1NC(=O)NC(C)=C1C(=O)OCCOC (stereo unspecified) | 5.8% | 2.5% | -0.1 | 0.1% | -0.3% | -4.0 | -11.7%
Cc1ccc(Cl)c2c1NC(=O)C2(O)CC(=O)c1ccc(F)cc1 (stereo unspecified) | 4.3% | 11.0% | 41.2[activator] | 1.8% | -1.0% | -3.4 | -15.9%
O=C(NCc1ccncc1)C(=O)Nc1ccc2c(c1)OCO2 | 10.7% | 2.7% | -2.3 | -1.4% | 2.1% | -0.2 | 5.1%
CN1C(=O)[C@H]2[C@@H](c3ccc(C(F)(F)F)cc3)N[C@]3(CCCN(CC4CCCCC4)C3=O)[C@H]2C1=O | nt | nt | nt | 2.4% | 1.9% | -7.3 | -19.3%
Cc1c(Cl)cccc1NC(=O)NCc1ccccn1 | 19.1% | 2.3% | -0.5 | -0.7% | -1.3% | 1.3 | 10.5%
O=C(NC1CCCCC1)C(CCc1ccccc1)N1CCc2ccccc2C1 (stereo unspecified) | nt | nt | nt | 7.4% | -1.0% | -1.1 | nt
CC(C)c1ccc2nc(SCC(=O)NCC3CCCO3)c(C#N)cc2c1 (stereo unspecified) | -2.4% | -16.6% | -7.0 | 3.5% | nt | -1.9 | -18.5%[15.4 µM]
CCCCOc1ccc(NC(=O)[C@@H]2CCCN2C(=O)C2CCN(S(=O)(=O)c3ccc(C)cc3)CC2)cc1 | 5.1% | -14.9% | 2.7 | 2.1% | -0.3% | -2.8 | -2.5%
COc1ccc(S(=O)(=O)N2CCCCC2)cc1NC(=O)C1CC1 | nt | 9.2% | nt | 0.8% | 0.1% | -5.3 | -21.8%
CCOCCCn1c(-c2ccc(Cl)cc2)n[nH]c1=S | 5.9% | -0.2% | 2.6 | 0.2% | -7.6% | 2.5 | ?
COc1cc(N=Nc2ccc(C(=O)N(C)C)cc2)c(C)cc1N | nt | -0.4% | nt | 0.3% | nt | -0.8 | -8.9%
COc1ccc(-n2nnnc2C(c2cc3ccccc3o2)N2CCN(C/C=C/c3ccccc3)CC2)cc1 (stereo unspecified) | nt | nt | nt | 1.8% | 2.0% | -7.2 | nt
CCN1CCN(C(=O)c2ccc(CS(=O)(=O)Cc3ccccc3C)o2)CC1 | 10.0% | 12.3% | -0.4 | 0.1% | -0.7% | -2.0 | 20.4%
O=C(N/N=C/c1cc(Br)c(O)c(Br)c1)C1CC1 | -4.5% | -15.2% | nt | 3.3% | 2.7% | -4.9 | -8.8%[15.4 µM]
O=C(NC(=S)N1CCCc2ccccc21)c1ccc(Cl)cc1 | 22.4µM* | -5.9% | -2.4 | -3.4% | -26.3% | 0.9 | ?
COC(=O)C1=C(C)NC(=S)NC1c1ccc(-c2ccccc2C(=O)OC)o1 (stereo unspecified) | ? | -3.5% | 3.9 | 5.5% | nt | -3.1 | -18.1%[15.4 µM]
Cc1cc(NC(=O)C(C)SCC(=O)Nc2cccc(S(=O)(=O)N3CCCCCC3)c2)no1 (stereo unspecified) | nt | -13.6% | nt | 1.0% | -0.8% | -1.0 | 29.1%
CCN(CC)S(=O)(=O)c1ccc2c(c1)[nH]c(=S)n2CC | 56.2µM* | nt | 1.6 | 0.9% | nt | 2.2 | -0.5%[15.4 µM]
COc1ccc(C(=O)N2CCN(c3ncccn3)CC2)cc1 | 8.0% | 7.5% | 0.1 | -2.0% | -10.3% | 1.1 | 16.2%
